High-throughput results from PubChem BioAssay.
VDR inhibitor = Inhibitors of the vitamin D receptor (VDR): qHTS. Vitamin D3 receptor (Homo sapiens), P11473. VDR-SRC2-3 peptide fluorescence polarization, 2 h. Potency, µM, without a hit: max response, negative = inhibition, hits mostly inhibitors. 0.93% of 400,000 active. AID 504847, 2011; active means well fitted inhibition curve with a large enough effect; inconclusive means small, poorly fitted or top-dose-only effect, or another doubt; inactive means no such curve, though single readings can be large or run the other way; further: series mostly up to about 120 µM
Target sequence (P11473 whole entry, looked up): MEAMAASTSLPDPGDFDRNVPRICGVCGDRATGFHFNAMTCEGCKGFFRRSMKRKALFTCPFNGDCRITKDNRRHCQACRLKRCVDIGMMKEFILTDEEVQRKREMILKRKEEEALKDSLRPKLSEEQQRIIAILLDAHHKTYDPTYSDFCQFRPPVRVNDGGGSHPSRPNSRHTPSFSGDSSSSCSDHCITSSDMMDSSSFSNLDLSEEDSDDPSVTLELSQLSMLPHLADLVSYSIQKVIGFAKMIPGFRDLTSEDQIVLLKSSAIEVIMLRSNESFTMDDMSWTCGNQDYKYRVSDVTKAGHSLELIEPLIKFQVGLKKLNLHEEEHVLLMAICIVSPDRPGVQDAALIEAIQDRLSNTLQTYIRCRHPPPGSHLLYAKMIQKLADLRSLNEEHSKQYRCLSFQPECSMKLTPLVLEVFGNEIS
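FP read-out; VDR + SRC2-3 coactivator peptide; 23 nl compound by pintool; 2 h RT incubation; reagents held at 4 deg C, protected from light.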
An asterisk follows results filed as active; ? = inconclusive; & = joins results of further samples; [ ] = remark or other dose. On the % scale 0 is the no-effect control and ±100 the full control effect; potency means the concentration at half of the fitted maximal effect.

SMILES | VDR inhibitor
COc1cc(/C=C2\SC(c3ccc(C)cc3)=NC2=O)cc(OC)c1OC | ?
CC(=O)c1cc2c(cc1N/C(=N/S(=O)(=O)c1ccc(F)cc1)c1ccccc1)OCO2 | 3.1%
CN1CCN(S(=O)(=O)c2cccc(C(=O)Nc3cccc([N+](=O)[O-])c3)c2)CC1 | 1.4%
COc1ccc(NC(=S)NNC(=O)CNc2ccc(Cl)cc2)cc1 | -15.6%
COc1cc(C(CC(=O)Nc2cc(C)ccn2)N2Cc3ccccc3C2=O)cc(OC)c1OC (stereo not drawn) | -13.4%&14.8%
COc1ccc(CCNC(=O)Cn2c(=O)cc(C(F)(F)F)c3c(C)nn(C)c32)cc1OC | 6.1%
CC(=O)Oc1ccc(-c2cccc(C(=O)NCCO)c2)cc1 | -10.9%
c1ccc(-c2ccccc2OCCN2CCOCC2)cc1 | 0.2%
Oc1[nH]c2ccc(Br)cc2c1N=NC(=S)Nc1ccc(F)cc1 | -6.2%
COC(=O)CSc1ncc(C#N)c(N)n1 | 16.9%
COc1ccc(C(=O)N2CCCc3ccccc32)cc1 | -19.7%
O=C(O)C1(Nc2ccccc2)CCCC1 | -9.7%
CCOc1ccc(C2C(C(=O)Nc3cc(C)on3)c3ccccc3C(=O)N2CCN2CCOCC2)cc1 (stereo not drawn) | 16.5%
COc1cc(OC)cc(-c2c(-c3cccs3)c3cc(-c4ccc(OC)cc4F)ccc3n2C)c1 | -2.7%
CCC(c1nnnn1C(C)C)N1CCN(C2CCCC2)CC1 (stereo not drawn) | -4.0%
CC(C)c1cc(-c2nc(-c3ccc(Cl)cc3)no2)n[nH]1 | 2.0%
CC(CP(=O)(O)O)NC(=O)Cc1ccccc1 (stereo not drawn) | 0.9%
O=C(CNC(=S)N(CCCN1CCOCC1)Cc1cccs1)NCc1ccccc1 | -10.7%
CCc1nnc(NC(=O)c2nc(Cl)ccc2Cl)s1 | -8.2%
COC(=O)C1=C(C)N(Cc2ccccc2)C(=NCc2cc(OC)c(OC)c(OC)c2)N[C@H]1CCc1ccccc1 | -1.4%
CC(=O)Nc1ccc(NC(=O)CCC(=O)c2ccc(C)cc2)cc1 | 12.7%
O=C(O)c1cc(C(=O)O)c(-c2ccccc2)c(C(=O)O)c1 | 10.3%
O=C(c1ccco1)n1nc(-c2ccco2)nc1SCc1ccccc1 | -6.5%
CCN1CCN(C(CNS(=O)(=O)c2ccc(Cl)cc2)c2ccccc2)CC1 (stereo not drawn) | -14.8%
COc1ccc(C(=O)OCC(O)COC(=O)c2ccc(OC)cc2)cc1 | -7.5%
NC(=O)CSc1nnc(-c2ccoc2)o1 | -1.2%
COC(=O)c1c(NC(=O)COc2ccc(OC)cc2)sc2c1CCC(C)C2 (stereo not drawn) | -2.2%
CCc1noc(C)c1C(=O)Nc1ccc(C)c(S(=O)(=O)N2CCCCCC2)c1 | -19.1%
COc1ccc(C(=O)OCC(=O)NCCN2C(=O)CSC2=O)cc1 | 8.4%
Cc1ccc(OCCCN(C)C)c(Br)c1 | 18.1%
COc1ccc(/C=N/Nc2nc(Nc3ccccc3)nc(N3CCCCC3)n2)c(OC)c1 | -19.4%
Cc1cc(C)c(C(N)=O)c(NC(=O)Nc2ccccc2)n1 | -3.6%
COc1ccc(F)cc1S(=O)(=O)n1cc(C)nc1-c1ccccc1 | ?
Cc1ccc(/C=N/NC(=O)c2cc(C)oc2C)cc1 | -3.0%
CCOc1ccc(NC(=O)c2ccc(NC(=O)N3CCSc4ncccc43)cc2)cc1 | 2.7%
Cc1cccc(NS(=O)(=O)c2cc3c(cc2C)NC(=O)CO3)c1 | -4.5%
O=C1NCCn2ccc(=O)cc21 | -1.6%
O=C1NN(c2ccccc2)C(=O)/C1=C/c1ccc(Sc2cccc3ccccc23)o1 | ?
CC(=O)Nc1ccc2c(c1)nc(CCNC(=O)c1ccco1)n2C | -16.6%
CCOc1ccc2[nH]c3c(c2c1)CNCC3 | 2.4%
O=C(COc1ccc2oc3c(c2c1)CCCC3)Nc1cccc(Br)c1 | -2.9%
N#Cc1ccc(-c2cccnc2)nc1SCc1ccc(Cl)c(Cl)c1 | 6.8%
Cc1ccc(OCC(=O)Nc2c(C)ccc3nsnc23)cc1 | 4.0%
CCN(C1CCCCC1)S(=O)(=O)c1ccc(S(=O)(=O)N(CC(=O)Nc2ccccc2)C2CC2)cc1 | 6.0%
COc1ccc(C(=O)Nc2ccccc2C(=O)Nc2cccc(C)n2)cc1 | -1.2%
Cc1ccc(Cn2c3ccccc3c3cn[nH]c(=O)c32)cc1 | -8.2%
COC(=O)Cn1c(=NC(=O)CSCC(=O)Nc2cc(C)on2)sc2cc(C(=O)OC)ccc21 | -15.5%
C#Cc1ccc([C@@H]2C=C(C(=O)NC3CC3)O[C@H](OCc3ccc(CO)cc3)C2)cc1 | 1.1%
C=CCOc1ccc(C2/C(=C(/O)c3ccc4c(c3)CC(C)O4)C(=O)C(=O)N2CCCN2CCOCC2)cc1 (stereo not drawn) | -10.4%
S=c1sc2c(N3CCN(Cc4ccccc4)CC3)ncnc2n1-c1ccccc1 | 17.4%
CCOc1cnc(-c2ccc(OC)cc2)o1 | 17.0%
COc1ccc2[nH]cc(/C=C/C(=O)c3ccccc3)c2c1 | -14.2%
COc1ccc(S(=O)(=O)NCCc2nnc3ccc(SCC(=O)Nc4ccccc4C)nn23)cc1 | 8.6%
NC(=O)/C(N=Nc1ccccc1)=N/Nc1ccccc1 | 2.3%
CCn1c(=O)c2ccccc2n2c(SCC(N)=O)nnc12 | -8.7%
Cc1c(OCC(=O)NCC(O)c2ccccc2)ccc2c3c(c(=O)oc12)CCCC3 (stereo not drawn) | -7.7%
c1cc(-c2cccs2)nc(-c2cccs2)c1 | 13.5%
Cc1sc2ncnc(SCC(=O)NC(C)C(C)C)c2c1C (stereo not drawn) | 5.9%
COc1ccccc1OCC(=O)Nc1cc(-c2ccc(C)cc2)no1 | 8.1%
Cc1nn(-c2ccccc2)c(N2CCCC2)c1/C=N/Nc1ccc(S(N)(=O)=O)cc1[N+](=O)[O-] | -15.3%
Next results.
SMILES | VDR inhibitor
CCC(C)NCCOc1ccccc1C (stereo not drawn) | 12.4%
Cc1c(C(=O)COC(C)(C)C)[nH]c2ccccc12 | 5.4%
COc1ccc(NC(=O)C2CCN(S(=O)(=O)c3ccc4c(c3)CCCC(=O)N4)CC2)c(OC)c1 | 6.0%
Cc1cccc(CCNC(=O)C2CCN(S(=O)(=O)c3cccc4nsnc34)CC2)c1 | -2.8%
O=C(Nc1ccccc1C(=O)NC(Cc1ccccc1)C(=O)O)c1ccco1 (stereo not drawn) | -1.3%
Cc1ccc(C)c(NC(=O)C2CC(O)CN2C(=O)Oc2ccccc2)c1 (stereo not drawn) | 2.3%
O=C(COc1ccc(Br)cc1)N/N=C1\SCC(=O)N1c1ccc(F)cc1 | 3.8%
COc1ccccc1NS(=O)(=O)c1cccc(N2CC(O)=C(c3ccccc3)C2=N)c1 | -1.3%
CCC/C(O)=C1\C(=O)CC(C)(C)CC1=Nc1ccc(OC)cc1 | -7.1%
O=C(c1ccccc1)c1ccc(Cn2cc(CCCO)nn2)cc1 | -10.1%
O=C(NC12CC3CC(CC(C3)C1)C2)c1ccccc1 | 18.4%
CCN(CC)C(=O)CC(c1ccc(F)cc1)c1ccc(OC)cc1 (stereo not drawn) | -3.0%
Cc1ccc(S(=O)(=O)N2CCN(C(=O)CN3C(=O)NC(C)(c4ccc5ccccc5c4)C3=O)CC2)cc1 (stereo not drawn) | -21.7%
Cc1cc(-c2nnc(SCC(=O)Nc3ccc(S(N)(=O)=O)cc3)n2N)n[nH]1 | 3.5%
CN1CCN(c2ccc(C(CC(N)=O)NC(=O)c3ccccc3)cc2[N+](=O)[O-])CC1 (stereo not drawn) | -10.3%
O=C(Nc1cccc(F)c1)N1CCCC2(CCN(C(=O)c3cccc(F)c3)CC2)C1 | 3.8%
O=c1[nH]c2ccccc2c(O)c1O | 7.08µM*
COc1ccc(S(=O)(=O)N(C)C[C@H]2Oc3c(NS(=O)(=O)c4ccc(F)cc4)cccc3C(=O)N([C@H](C)CO)C[C@@H]2C)cc1 | 3.0%
NC(=O)c1ccc[n+](CC(=O)Nc2ccccc2C(=O)O)c1 | -8.9%
CC(=O)Nc1nnc(-c2ccco2)o1 | -14.0%
COc1ccccc1C(=O)Nc1sc2c(c1C(N)=O)CCCC2 | -16.5%
CC(=O)NCCNC(=O)c1ccc(Cn2c(=O)[nH]c3ccsc3c2=O)cc1 | -11.4%
CCOc1ccc(NC(=O)Cn2nnc3c(cnn3-c3ccc(F)cc3)c2=O)cc1 | -13.9%
NCc1cccc(-n2cccn2)c1 | -7.9%
CC(C)C(=O)N1N=C(c2ccc(NS(C)(=O)=O)cc2)CC1c1cccs1 (stereo not drawn) | -17.7%
COc1ccccc1CNC(=O)CCNC(=O)Cn1ccc2ccccc2c1=O | 2.9%
CCOC(=O)Cc1csc(NC(=O)Nc2cccc(Cl)c2)n1 | -6.2%
CC1CCN(S(=O)(=O)Cc2ccccc2Cl)CC1 | -4.2%
CC1C(=O)N2CCCc3cc(NC(=O)C(=O)NCCCc4ccccc4)cc1c32 (stereo not drawn) | -5.4%
Clc1ccc(CSc2ncn[nH]2)cc1 | 2.8%
COc1cc(/C=C/[N+](=O)[O-])ccc1OCc1cccc(C(=O)O)c1 | 20µM*
CC(=O)c1sc(NC(=O)C2CCN(c3ncnc4sc(C)c(C)c34)CC2)nc1-c1ccccc1 | 3.5%
Cc1nn(C)c(C)c1Nc1ccc(N2C(=O)C3C4C=CC(C4)C3C2=O)cc1[N+](=O)[O-] (stereo not drawn) | 53.2%[activator]
O=C(CN1C(=O)NC2(CCCC2)C1=O)N1CCN(Cc2ccccc2)CC1 | 6.9%
Cc1ccc(-n2nc3c(c2NC(=O)c2ccco2)CS(=O)(=O)C3)c(C)c1 | -2.0%
COC(=O)CNC(=O)c1ccc(NS(=O)(=O)c2cc([N+](=O)[O-])ccc2Cl)cc1 | 2.1%
COc1ccc2c(c1)c(C(=O)O)c(C)n2-c1ccccc1 | -4.1%
Cc1cccc(Nc2nc(N)nc(CSC(=S)N3CCOCC3)n2)c1 | 12.5%
C/C(=N\NC(=O)CN(c1ccccc1)S(=O)(=O)c1ccccc1[N+](=O)[O-])C(C)(C)C | 4.5%
COc1cccc(OCC(=O)Nc2ccccc2NC(C)=O)c1 | 2.7%
O=C(Nc1cccc(-c2cn3ccccc3n2)c1)c1cc2ccccc2oc1=O | 10.3%
CCOc1ccc(CCNC(=O)CCc2cn(Cc3ccc(F)cc3)c3ccccc23)cc1 | 10.2%
COc1ccc(CNCc2ccncc2)c(OC)c1 | 10.8%
COc1ccc(OC)c(S(=O)(=O)N2CCC(c3ccncc3)CC2)c1 | -3.3%
Cc1cccc(OCC(=O)N/N=C\c2cn(C)c3ccccc23)c1 | 6.5%

Nothing new here: entries from further up.
SMILES | VDR inhibitor
C/C(=N\NC(=O)CN(c1ccccc1)S(=O)(=O)c1ccccc1[N+](=O)[O-])C(C)(C)C | 4.5%
COc1cccc(OCC(=O)Nc2ccccc2NC(C)=O)c1 | 2.7%
O=C(Nc1cccc(-c2cn3ccccc3n2)c1)c1cc2ccccc2oc1=O | 10.3%
CCOc1ccc(CCNC(=O)CCc2cn(Cc3ccc(F)cc3)c3ccccc23)cc1 | 10.2%
COc1ccc(CNCc2ccncc2)c(OC)c1 | 10.8%
COc1ccc(OC)c(S(=O)(=O)N2CCC(c3ccncc3)CC2)c1 | -3.3%
Cc1cccc(OCC(=O)N/N=C\c2cn(C)c3ccccc23)c1 | 6.5%

Next part
SMILES | VDR inhibitor
CCCCN(C)C(=O)C1CCC(=O)N(c2cc(OC)c(OC)c(OC)c2)C1c1ccc(OC)cc1 (stereo not drawn) | -13.1%
CCOC(=O)N1CCN(S(=O)(=O)c2ccc(F)cc2)CC1 | -3.0%
CCOC(=O)c1c(C)sc(-c2c(-c3ccccc3)[nH]c3[nH]c(=O)[nH]c(=O)c23)c1O | 7.2%
CC(=O)Nc1ccc(NC(=O)C(C)OC(=O)c2ccc(S(=O)(=O)N3CCCCCC3)cc2)cc1 (stereo not drawn) | 2.7%
COC(=O)c1ccc(N=NNc2cccc(Br)c2)cc1 | -13.0%
COc1ccc(S(=O)(=O)NN(C)C(=O)c2nn(-c3ccccc3)ccc2=O)cc1 | -0.9%
Nc1nccc(-c2cccs2)n1 | 1.6%
O=C(NC1CC2CCCC(C1)N2Cc1ccccc1)c1ccc([N+](=O)[O-])cc1 (stereo not drawn) | -8.6%
CN(C)S(=O)(=O)c1cccc(NC(=O)COC(=O)/C=C/c2ccc(Br)o2)c1 | 2.0%
Cc1cccc(NC(=O)COc2ccc(Br)cc2C)n1 | -14.8%
O=C(CC1C(=O)NCCN1Cc1c(F)cccc1Cl)NCCCOc1cccnc1 (stereo not drawn) | 20.1%
CC(=O)c1ccc(OCCCC(=O)NCCc2ccc(C(F)(F)F)cc2)cc1 | 10.4%
COc1cc(/C=C2\C(=O)ON=C2c2ccccc2)cc(OC)c1OC | 28.2µM*
O=S(=O)(Nc1ccc(-c2ccccc2)cc1)c1ccccc1 | -12.2%
COC(=O)[C@@]1(C)[C@H]2C(=O)N(Cc3ccccc3)C(=O)[C@H]2[C@H]2CN=C(SCc3ccc(C)cc3)N21 | -11.9%
COc1ccc(-c2cc(C(=O)NCc3ccc(F)cc3)c3c(-c4ccc(F)cc4)[nH]nc3n2)cc1OC | 11.5%
O=C(COc1ccccc1)Nc1ccncc1Cl | -0.7%
CCc1ccccc1NNC(=O)CCc1ccccc1 | 1.5%
CCCCCN(C)CCC(O)(P(=O)(O)O)P(=O)(O)O | 7.3%&10.4%

Molecules listed so far that contain a cyano group (2):
SMILES | VDR inhibitor
COC(=O)CSc1ncc(C#N)c(N)n1 | 16.9%
N#Cc1ccc(-c2cccnc2)nc1SCc1ccc(Cl)c(Cl)c1 | 6.8%

These rows are one share of the data. The share of hits here may be higher or lower than overall.
